Compound activity: PubChem BioAssay, NMMLSC
Autofluor counter: compound fluorescence in toxin protease inhibitor counterscreen; 360,000 compounds, 3.1% hits; AID 624483; fluorescence intensity (test concentration not listed); compound autofluorescence counterscreen, microsphere flow cytometry; stronger effect = higher value;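 active = at least 3 SD above the mean of all compounds, about 16000 in these data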;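 note: 100 nL of 1 mM stock went into each well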
* marks the source's active call; other numbers are inactive results. These rows are one share of the data; rates above refer to the full screens.

SMILES	Autofluor counter
C[C@@H]1CN([C@H](C)CO)C(=O)CCCn2cc(nn2)CO[C@H]1CN(C)S(=O)(=O)c1ccc(-n2cccn2)cc1	2917
CCOc1ccc(NC(=O)CSc2nc3ccsc3c(=O)n2Cc2ccc(C(=O)O)cc2)cc1	3340
COc1cc(-c2coc3c(C(=O)NCc4ccc(OC)c(OC)c4)cccc23)ccc1O	3765
Cc1cc(N2CCN(C(=O)c3[nH]c(C(F)(F)F)nc3-c3ccccc3)CC2)c2ccccc2n1	5937
COc1ccc(Cc2c(-c3ccc(F)cc3)nc3c4ccccc4ccn23)c(C)c1	6793
COc1ncnc2c1ncn2CCCN1CCN(C(=O)C2CC2)CC1	3834
COCCn1c(SCC(=O)Nc2cc(C)on2)nc2c([nH]c3ccccc32)c1=O	4071
O=C(c1ccc([N+](=O)[O-])s1)N1CCN(c2ncccn2)CC1	4026
CC1(C)CC(=O)C=C(c2ccc(COC(=O)c3cc(F)cc(F)c3)cc2)C1=O	3713
CCC(=O)N1CCCC1(C)C(=O)Nc1cccc(Oc2ccccc2)c1 (stereo unspecified)	3407
CCCCC1Cc2[nH][nH]c(=O)c2C(c2ccc(Cl)cc2)O1 (stereo unspecified)	5893
C[C@@H]1CN([C@@H](C)CO)C(=O)CCCn2nncc2CO[C@@H]1CN(C)C(=O)NC1CCCCC1	2932
COc1ccc(NC(=O)c2ccncc2)cc1S(=O)(=O)N1CCCCC1	3566
CCc1nc2ccc(C(=O)Nc3ccc(C(N)=O)cc3)cn2c1N(CCC(C)C)CCN(C)C	4155
O=c1[nH]c(=S)[nH]c2c1C(c1ccc(Cl)cc1)OC(C1CCCCC1)C2 (stereo unspecified)	5906
O=C(NCCCn1ccnc1)c1sc2cc([N+](=O)[O-])ccc2c1Cl	3850
Cc1c(C(=O)NCc2cccc([N+](=O)[O-])c2)sc(=O)n1Cc1ccccc1F	5726
CCc1nc2ccc(C(=O)Nc3ccc(NC(C)=O)cc3)cn2c1N(C)CCC(C)C	3951
COc1ccc(-c2nc3c(C)cc(Br)cn3c2Cc2ccsc2)cc1OC	6622
COc1ccc(NC(=O)c2cc(C3CCCCN3C(=O)c3ccc(NC(C)=O)cc3)on2)c(C)c1 (stereo unspecified)	3721
C[C@@H]1CN([C@H](C)CO)C(=O)c2cc(-c3ccc(C#N)cc3)cnc2O[C@H]1CN(C)C(=O)c1ccccc1	3542
CC1(c2ccc(Cl)cc2)NC(=O)N(CC(=O)Nc2ccc3c(c2)OCO3)C1=O (stereo unspecified)	3762
COc1ccc(-c2cnc3c(NC=O)cc(-c4ccoc4)cn23)cc1OC	3585
Cc1ccc(Nc2nc(N)nc(N)c2N=O)cc1C	5954

Exported bar-delimited: entries from further up.
canonical_smiles | Autofluor counter
COc1ccc(NC(=O)c2ccncc2)cc1S(=O)(=O)N1CCCCC1 | 3566
COc1cc(-c2coc3c(C(=O)NCc4ccc(OC)c(OC)c4)cccc23)ccc1O | 3765

More results follow:
SMILES	Autofluor counter
CCCCC(=O)N(C)c1c(C)nc2ccc(C(=O)Nc3cccc(OC)c3)cn12	4024
O=C(NCCO)c1ccc(-c2cnc3cccnn23)cc1	3672
CC(C)[C@@H]1Cc2[nH]c(=S)[nH]c(=O)c2[C@H](CCc2ccccc2)O1	5647
CCc1nc2ccc(C(=O)N3CCN(C(=O)c4ccco4)CC3)cn2c1N(C)C(=O)C1CCCCC1	3544
Cc1cccc(OCCNc2ncccc2[N+](=O)[O-])c1	3651
CC1(C(=O)NS(=O)(=O)Cc2cccc(Cl)c2)CCN1C(=O)Cc1cccs1 (stereo unspecified)	3954
C[C@H](CO)N1C[C@H](C)[C@@H](CN(C)C(=O)Nc2cccc3ccccc23)OCCCC[C@H](C)Oc2ccc(NS(=O)(=O)c3cn(C)cn3)cc2C1=O	6721
CC(C)CCN1CCC[C@]2(N[C@H](c3ccc(C(F)(F)F)cc3)[C@@H]3C(=O)N(Cc4ccccc4)C(=O)[C@@H]32)C1=O	3735
COc1ccc(CN2C(=O)C(CC(=O)NCCCN(C)C)CC(C(=O)N(C)C)=C2C)cc1 (stereo unspecified)	2918
COc1cc(F)ccc1-c1cc(C(=O)NCc2cc(C(F)(F)F)cc(C(F)(F)F)c2)[nH]n1	2787
COCc1cccc(-c2csc(C(O)c3ccc(F)c(F)c3)n2)c1 (stereo unspecified)	3477
COc1ccc(COC[B-](F)(F)F)cc1	3610

A different layout for 14 compounds above.
structure,Autofluor counter
C[C@@H]1CN([C@H](C)CO)C(=O)CCCn2cc(nn2)CO[C@H]1CN(C)S(=O)(=O)c1ccc(-n2cccn2)cc1,2917
CCOc1ccc(NC(=O)CSc2nc3ccsc3c(=O)n2Cc2ccc(C(=O)O)cc2)cc1,3340
COc1cc(-c2coc3c(C(=O)NCc4ccc(OC)c(OC)c4)cccc23)ccc1O,3765
Cc1cc(N2CCN(C(=O)c3[nH]c(C(F)(F)F)nc3-c3ccccc3)CC2)c2ccccc2n1,5937
COc1ccc(Cc2c(-c3ccc(F)cc3)nc3c4ccccc4ccn23)c(C)c1,6793
COc1ncnc2c1ncn2CCCN1CCN(C(=O)C2CC2)CC1,3834
COCCn1c(SCC(=O)Nc2cc(C)on2)nc2c([nH]c3ccccc32)c1=O,4071
O=C(c1ccc([N+](=O)[O-])s1)N1CCN(c2ncccn2)CC1,4026
CC1(C)CC(=O)C=C(c2ccc(COC(=O)c3cc(F)cc(F)c3)cc2)C1=O,3713
CCC(=O)N1CCCC1(C)C(=O)Nc1cccc(Oc2ccccc2)c1 (stereo unspecified),3407
CCCCC1Cc2[nH][nH]c(=O)c2C(c2ccc(Cl)cc2)O1 (stereo unspecified),5893
C[C@@H]1CN([C@@H](C)CO)C(=O)CCCn2nncc2CO[C@@H]1CN(C)C(=O)NC1CCCCC1,2932
COc1ccc(NC(=O)c2ccncc2)cc1S(=O)(=O)N1CCCCC1,3566
CCc1nc2ccc(C(=O)Nc3ccc(C(N)=O)cc3)cn2c1N(CCC(C)C)CCN(C)C,4155

Next part.
SMILES	Autofluor counter
CCOC(=O)C1CCCN(C(=O)c2cncc(Br)c2)CC1 (stereo unspecified)	3955
COc1cccc(NC(=O)C2(C)CCN2C(=O)CCC2CCCC2)c1 (stereo unspecified)	2920
C[C@@H]1CN([C@@H](C)CO)C(=O)CCCn2nncc2CO[C@@H]1CN(C)C(=O)Nc1ccc2c(c1)OCO2	3749
CCOC(=O)C1(C)CCCN(C(=O)c2cc(C)oc2C)C1 (stereo unspecified)	3609
CCCCn1nnnc1C(CCSC)N1CCC2(CC1)C(=O)NCN2c1ccccc1 (stereo unspecified)	5233
COc1ccc(C(O)c2nc(-c3ccc(OC)nc3)cs2)cc1 (stereo unspecified)	3037
C[C@@H]1CN([C@@H](C)CO)C(=O)CCCn2nncc2CO[C@H]1CN(C)C(=O)Oc1ccccc1	3478
O=c1[nH]c2ccccc2n1C1CCN(C(c2nnnn2C2CCCCC2)C2CC2)CC1 (stereo unspecified)	5065
O=C(NC1CCS(=O)(=O)C1)c1cc2c(=O)n3ccccc3nc2n1Cc1ccccc1 (stereo unspecified)	3367
CCCCCC(=O)N1C[C@H](n2cc(C3CC3)nn2)[C@@H](O)C[C@@H]1c1ccc(C)cc1	3810
COc1cccc(C(O)c2nc(-c3ccccc3)cs2)c1 (stereo unspecified)	3788
COC(=O)C(CCC(=O)CN1C(=O)c2ccccc2C1=O)N1C(=O)c2ccccc2C1=O (stereo unspecified)	4263
C[C@H]1CN([C@@H](C)CO)C(=O)CCCn2nncc2CO[C@@H]1CN(C)Cc1ccc(Cl)c(Cl)c1	3392
COCOCCn1cc(CN2CCS(=O)(=O)N(Cc3ccc(-c4ccncc4)cc3)C(C)C2=O)nn1 (stereo unspecified)	3351
COCOCCn1cc(CN2CCS(=O)(=O)N(Cc3ccc(-c4ccc(C)cc4)cc3)C(C)C2=O)nn1 (stereo unspecified)	2901
CN(Cc1ccccn1)C(=O)c1cc(COc2ccc(F)c(F)c2)on1	3021
COC(=O)c1ccccc1COc1cccn2c(N(C)Cc3cccs3)c(C)nc12	3890
Cc1ncc(C(=O)O)n1C(C)c1ccccc1 (stereo unspecified)	3247
COc1ccc(OC)c(NC(=O)COC(=O)c2ccc(S(=O)(=O)N3CCCCC3)cc2)c1	3616
CCNC(=O)C1(C)CCN(C(=O)c2ccccc2C(F)(F)F)C1 (stereo unspecified)	3912
Cc1ccc(-c2cnc(C(O)c3cccc(C)c3C)[nH]2)cc1 (stereo unspecified)	3862
COc1ccccc1-c1cccc(-c2nc(C(=O)Nc3nccs3)cc3c2[C@@H](CCO)N(C(C)=O)C3)c1	5867
C[C@@H]1CCCCO[C@@H](CN(C)C(=O)C2CCCCC2)[C@@H](C)CN([C@H](C)CO)C(=O)c2cc(NC(=O)NC3CCCCC3)ccc2O1	2947
Cc1noc(C)c1-c1ccc(C(=O)NCc2ccc(Cl)cc2)c2occc12	3441
CN(C)C(=O)c1cccc(-c2cnc3sc(NCc4ccc5c(c4)OCO5)nn23)c1	3905
Cc1c(C(=O)NCc2cccc(C(F)(F)F)c2)sc(=O)n1Cc1cccc(F)c1	3576
CC(CNC(=O)CC[C@H]1O[C@@H](n2cnc3c(NC(=O)c4ccccc4)ncnc32)[C@H](O)[C@@H]1O)c1ccccc1 (stereo partly specified)	4343
O=C(Nc1ccc2c(c1)OCO2)c1cc(C2CCCN(C(=O)CCCc3ccccc3)C2)on1 (stereo unspecified)	3318
Cc1ccc(-c2ccc(CN3C(C(C)C)C(=O)N(Cc4cn(CC5CCCCC5)nn4)CCS3(=O)=O)cc2)cc1 (stereo unspecified)	3461
Cn1c(NCCN2CCCC2)nc2cc(-c3ccccc3)sc2c1=O	5196
Cc1ccc2nc(-c3ccc(C#N)cc3)c(Cc3ccccn3)n2c1	6480
C[C@H]1CN([C@@H](C)CO)C(=O)CCCn2cc(nn2)CO[C@@H]1CN(C)C(=O)NC1CCCCC1	6009
c1ccc(N=NN2CCOCC2)cc1	3641
O=C(NCc1ccccc1)c1cc(C2CCCCN2S(=O)(=O)c2ccccc2)on1 (stereo unspecified)	3725
CC(C)(C)OC(=O)CC(S(=O)(=O)c1ccccc1)S(=O)(=O)c1ccccc1	4125
CCCC(=O)N1CCCC1(C)C(=O)Nc1ccc(-n2cncn2)cc1 (stereo unspecified)	3644
C[C@@H](c1ccccc1)N1C[C@@H](COCc2ccccc2)Oc2cc(N3CC[C@H](N(C)C)C3)ccc2S1(=O)=O	5945
COc1ccc(S(=O)(=O)N2CCC(C(=O)NCCC(=O)NCCc3cccc(F)c3)CC2)cc1	3545
CC[C@@H](NC(=O)[C@@H](Cc1ccccc1)NC(=O)CC[C@H]1O[C@@H](n2ccc(=O)[nH]c2=O)[C@H](O)[C@@H]1O)c1ccccc1	6003
COc1ccc(C#Cc2cccc(-c3nc(C(=O)N4CCN(C)CC4)cc4c3[C@H](CCO)N(S(=O)C(C)(C)C)C4)c2)cc1OC (stereo partly specified)	5698
CC(=O)Nc1cccc(-c2ccnc3c2CC(C)(C(=O)NCc2ccccc2)O3)c1 (stereo unspecified)	3915
CN(C)c1ccc(CNc2nc3cc(-c4ccc(F)cc4)sc3c(=O)n2C)cc1	2976
COc1cccc(C(C)(O)c2nc(-c3ccc(N(C)C)cc3)cs2)c1 (stereo unspecified)	3522
CCOC(=O)[C@]12CCC=C1N(Cc1ccc3c(c1)OCO3)C(=O)[C@H](CC(=O)N1CCOCC1)C2	5145
N#CC12CC(=O)N1Cc1cnnn1-c1ccccc12 (stereo unspecified)	4391
CC(C)CNc1ncnc2c1ncn2[C@H]1CN(Cc2ccc(C(=O)O)cc2)C[C@@H](CO)O1	3818
S=C1Nc2ccccc2CS1	2856
C[C@@H]1CN([C@H](C)CO)S(=O)(=O)c2ccc(-c3cccc(C(=O)N(C)C)c3)cc2O[C@H]1CN(C)C(=O)Nc1ccc(F)cc1	3831
CCNC(=O)C1(C)CCCN(C(=O)c2oc3ccccc3c2C)C1 (stereo unspecified)	2789
O=[N+]([O-])c1ccccc1S(=O)NCc1c(Cl)cccc1Cl (stereo unspecified)	5997
O=C(NCc1ccccc1Cl)c1ccc2nc([C@@H]3O[C@H](CO)[C@@H](O)[C@H]3O)[nH]c2c1	4612
CCc1ccc(S(=O)(=O)NCc2ccc(C(=O)NCCN(Cc3ccccc3)C(C)C)cc2)cc1	3622
NC(c1csc(Nc2cc(NCCCO)ncn2)n1)c1ccccc1Cl (stereo unspecified)	3325
COc1ccccc1CNc1nc(Nc2cccc(-c3cnco3)c2)c2sccc2n1	4181
Cc1nc(C(F)(F)F)ccc1C(=O)N1CCC1(C)C(=O)NCc1cccs1 (stereo unspecified)	3904
Fc1ccc(Nc2cncc(-c3ccsc3)c2)cc1Cl	4175
COc1cccc(-c2cccc(-c3nc(C(=O)NCc4ccc5c(c4)OCO5)cc4c3[C@H](CCO)N(S(=O)C(C)(C)C)C4)c2)c1 (stereo partly specified)	5264
CCOC(=O)[C@]12CCC=C1N(Cc1ccccc1)C(=O)[C@H](CC(=O)NCc1ccc(C)o1)C2	4543
CC1(C(=O)Nc2cccc3c2CCCC3)CCN1C(=O)C1(c2ccc(Cl)cc2)CC1 (stereo unspecified)	3748
CCCCc1c(-c2ccccc2OC)ncn1Cc1ccc(-c2ccccc2)cc1	4759

The list continues:
SMILES	Autofluor counter
COc1ccc(CN2C(=O)C(CC(=O)NC3CC3)CC(C(=O)N(C)C)=C2C)cc1 (stereo unspecified)	3514
CCOC(=O)C1=NOC2(C1)C(=O)Nc1c(Cl)cccc12 (stereo unspecified)	5591
CCOc1ccccc1-c1ccc2nccn2c1	4698
CCCCNC(=O)C1(C)CCC(=O)N1CCOc1ccccc1 (stereo unspecified)	5974
Cc1nn(-c2ccccc2)c(C)c1NC(=O)COc1ccccc1C#N	3717
Cc1ccccc1CNC(=O)c1ccc2sc([C@H]3C[C@H](O)[C@@H](CO)O3)nc2c1	3714
COc1ccc(CN(C)C[C@@H]2OCc3cnnn3CCCC(=O)N([C@@H](C)CO)C[C@H]2C)cc1	3750
CSc1ncccc1C(=O)N1CCC1(C)C(=O)NC(C)C (stereo unspecified)	3901
O=C(Nc1ccc(F)cc1)Nc1nnc([C@H]2C[C@H](O)[C@@H](CO)O2)s1	2873
O=C(CCn1c(=O)c2cccn2c2cccnc21)NCCCN1CCN(c2ccc(F)cc2)CC1	4200
Cc1ccc(S(=O)(=O)N2CCC(=O)N([C@H](CO)Cc3ccccc3)CC2)cc1	5116
CSc1ccc(Cn2c(C)c(C(=O)NCc3cccc(Cl)c3)sc2=O)cc1	4126
CS(=O)(=O)N1CCCCC1c1cc(C(=O)NCc2ccccc2)no1 (stereo unspecified)	2867
